Screening results (PubChem BioAssay)
Vaccinia pol inh – vaccinia E9 polymerase processive synthesis inhibition. in vitro processive DNA synthesis, absorbance read-out; active compounds read low; some inactives read as strong as hits. normalized absorbance, % (test concentration not listed). actives 0.94% (n = 46,000). AID 493162;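 active means replicate mean up to 90% and picked by the depositor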;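 further: 100% = median of the test wells of a plate; 100 nL library stock went into each well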
The depositor's hits bear a star.

SMILES	Vaccinia pol inh
Cc1nc(CSc2nnc3scc(-c4ccccc4)n23)cs1	95
COc1ccc(C2NC(=O)C(C#N)=C(S)N2c2ccccc2)cc1OC (stereo unspecified)	100
COc1ccc(-c2c(C)oc3cc(O)ccc3c2=O)cc1	101
CC(C)c1cccc(C(C)C)c1OCCCN1CCOCC1	93
CCc1nnc(SCC(=O)NCc2ccc(C)cc2)c2cc3sccc3n12	101
CN(C)C(=S)SSC(=S)N(C)C	100
Cc1ccc(N2NC(=O)CC2=O)cc1C	101
Cc1nc2ccccc2n1C/C=C/c1ccccc1	98
O=C(O)CCNC(=O)Nc1ccccc1	106
C=CCN(CC=C)C(=O)Cc1ccc(Br)cc1	101
COc1ccccc1NC(=O)C1c2ccccc2Oc2ccccc21	100
Cc1cc2ccccc2n1CCNS(C)(=O)=O	100

Laid out differently: results already given.
compound: Cc1nc2ccccc2n1C/C=C/c1ccccc1
  Vaccinia pol inh: 98
compound: O=C(O)CCNC(=O)Nc1ccccc1
  Vaccinia pol inh: 106
compound: C=CCN(CC=C)C(=O)Cc1ccc(Br)cc1
  Vaccinia pol inh: 101
compound: COc1ccccc1NC(=O)C1c2ccccc2Oc2ccccc21
  Vaccinia pol inh: 100

(further entries)
SMILES	Vaccinia pol inh
CCC(C)(C)NC(=O)c1ccc2c(c1)OCCO2	98
Cc1ccc(-c2noc(CN3CCN(c4ccccc4F)CC3)n2)cc1	100
CCOC(=O)c1cn(C2CC(O)(O)C3OCC2O3)nc1N (stereo unspecified) (tested in a mixture with another compound)	100
CCn1c(=N)c(S(=O)(=O)c2ccccc2)cc2c(=O)n3ccccc3nc21	100
Cc1ccc(-c2csc(-c3ccccc3N)n2)cc1	96
Cc1ccc(Nc2nnc(-c3ccccc3)c3ccccc23)cc1	106
Cc1ccc(-n2c(C)cc(=O)cc2C)c(C)c1	100
O=C(CC1Nc2ccccc2NC1=O)NC1CCCCC1 (stereo unspecified)	98
COC(=O)C1=CN(Cc2ccc(C)cc2)C=C(C(=O)OC)C1c1ccc(C)s1	112
C=CCc1c(C)[nH]c2ccc(N)cc2c1=O	101
CCN(CC)C(=O)Oc1nnc(SC(C)C)n1-c1ccc(Cl)c(Cl)c1	100
O=C(Oc1ccc(C=Nc2ccccc2Br)cc1)c1ccccn1	101
CN(c1ncnc2c1cnn2-c1ccccc1)C1CCCCC1	92
CC1(C)CC(OC(=O)CC(=O)OC2CC(C)(C)NC(C)(C)C2)CC(C)(C)N1	102
COc1ccc(OC)c(CCCc2cc(OC)ccc2OC)c1	98
Cc1cnc2c(c1)C(=Nc1ccccc1)c1ccccc1-2	100
CCOC(=O)c1cc(C(C)(C)C)[nH]c(=S)c1C#N	107
Cc1ccc(S(=O)(=O)CCC(=O)O)cc1C	90
O=C(Nc1ccc2ccccc2c1)C1CCCN(S(=O)(=O)c2ccccc2)C1 (stereo unspecified)	99
O=C(/C=C/c1ccc(F)cc1)/C=C/c1ccc(F)cc1	100
COCC(=O)NCc1ccc2c(c1)cc(C)n2C	100
C(=N\[n+]1ccccc1)/c1ccccc1	102
S=C(NC1CC1)N1CCCN(Cc2cccc3ccccc23)CC1	94
O=c1oc2c(-c3ccc(Br)cc3)cc(O)cc2s1	82
CCN=C(NCC)Nc1ccc(Cl)cc1	83
CC(C)n1c(-c2ccccc2)csc1=Nc1ccccc1	100
CC1Cc2ccccc2N1C(=O)c1cccc(COc2ccc(Cl)cc2)c1 (stereo unspecified)	100
CCN(CC)N1CCN(S(=O)(=O)c2ccc(S(=O)(=O)c3ncccn3)cc2)CC1	103
CC(Oc1ccccc1)C(=O)Nc1scc2c1c(=O)oc1ccccc12 (stereo unspecified)	100
COC(=O)c1ccc(C2Nc3c(C(=O)OC)cccc3C3C=CCC32)cc1 (stereo unspecified)	98
O=C(Nc1ccc(OC(F)(F)F)cc1)Nc1ccc(C2=NCCO2)cc1	89
Cn1c(=S)n(CCSc2nc3ccccc3n2-c2ccccc2)c2ccccc21	97
CC(C)=C1C2C=CC1C1C(=O)N(Cc3cccnc3)C(=O)C21 (stereo unspecified)	100
Cc1cc(C)c(OCC(O)CNC(C)(C)C)c(C)c1 (stereo unspecified)	100
CCOC(=O)c1ccc(Nc2cc(C)nc(-c3ccccc3)n2)cc1	100
O=c1cc(N2CCOCC2)oc2c(-c3ccccc3)cccc12	100
CC(C)CCNCC1OCc2ccccc2CO1	101
Cc1ccc(NC(=O)CSc2n[nH]c(-c3ccc(Br)cc3)n2)cc1	99
COc1ccc(C(C)(C)C)cc1NC(=O)COC(=O)C1CCC1	89
COc1ccccc1NC(=O)Cn1c(C(F)(F)F)nc2ccccc21	109
O=S(=O)(c1cccs1)N1CCCc2cccc(O)c21	101
Cc1cc(C)c(C#N)c(N2CCOCC2)n1	114
O=C1C(Nc2ccccc2)=CC(c2ccccc2)N1c1ccccc1 (stereo unspecified)	97
CSc1ccc2c(c1)C(N1CCN(C)CC1)Cc1ccccc1S2 (stereo unspecified)	100
NC(=O)c1ccsc1NC(=O)C1=COCCO1	111
CCCn1c(=N)c(C(=O)NC2CCCC2)cc2c(=O)n3ccccc3nc21	100
CCOC(=O)c1cc(-c2ccc(Cl)cc2)[nH]c(=O)c1C#N	106
Cc1ncc2c(c1OC(=O)c1ccccc1)COC(C)(C)OC2	100
Cc1ccc2c(=O)c(C(=O)c3ccccc3)coc2c1	99
Cc1ccc(C(=O)NC(=C(Cl)Cl)S(=O)(=O)c2ccc(C)cc2)cc1	108
O=C1CCCN2N=C(SCC(=O)NC3CCCCC3)SC2=N1	95
CCOC(=O)c1ccc(NC(=O)CNC(=O)c2ccc(Cl)cc2)cc1	96
CSc1nc2cc(C)nn2c(-c2ccc(C(C)(C)C)cc2)c1C#N	95
O=C1N(c2ccc3c(c2)OCCO3)C(c2ccccc2)C1(F)F (stereo unspecified)	95
Cc1cccn2cc(CNC(=O)CC3CCCC3)nc12	103
Cn1cc(SCC(=O)N2CCCc3ccccc32)c2ccccc21	101
CCc1ccc(Nc2cc(=O)oc3ccccc23)cc1	100
CCN(CC)c1ccc(N=Cc2ccc3ccccc3n2)cc1	100
COc1ccccc1C(=O)Nc1ccc2nc(C)sc2c1	96
Cc1ccc(Cn2cc(CCCC(=O)N3CCCC3)c3ccccc32)cc1	91

Other records:
SMILES	Vaccinia pol inh
CCn1c2ccccc2c2cc(NC(=O)c3ccccc3C)ccc21	100
CCN(c1ccccc1)S(=O)(=O)c1ccc(Cl)nc1	98
BrCCOC12CC3CC(CC(C3)C1)C2	102
OC(CNCc1ccc2c(c1)OCO2)COc1ccc(-c2csnn2)cc1 (stereo unspecified)	93
CC1CCN(c2c(N)cccc2Cl)CC1	97
CCn1c2ccccc2c2cc(/C=N/n3cnnc3)ccc21	61*
COc1ccc(/C=C/C(=O)Nc2noc3ccccc23)cc1OC	112
c1cncc(CNc2c3c(nc4ccccc24)CCC3)c1	94
Cc1c(C)n(C(=O)CSc2ncccn2)c2ccccc12	100
Cc1ccccc1NS(=O)(=O)c1ccc2[nH]cc(C(=O)N3CCc4ccccc43)c(=O)c2c1	100
N=C1CCCN1c1ccccc1O	99
C=CCC1(C#N)C(=S)NC(c2ccccc2)=C(C(=O)OCC)C1c1cccnc1 (stereo unspecified)	101
O=C(NC(Cc1ccccc1)C(=O)OCc1cnc(-c2ccccc2)o1)c1ccccc1 (stereo unspecified)	99
CCOC(=O)C1=C(C)NC(SC)=NC1c1ccccc1 (stereo unspecified)	98
Nn1c(SCC(=O)NC2CCCCC2)nnc1C(F)(F)F	101
CCC(=O)c1ccc(N2CCN(C(=O)c3ccco3)CC2)c(F)c1	96
O=C(NC1CCC(CC2CCC(NC(=O)c3cccnc3)CC2)CC1)c1cccnc1 (stereo unspecified)	101
O=C(CSc1cn(Cc2ccccc2Cl)c2ccccc12)N1CCCC1	99
O=C(O)c1ccc(S(=O)(=O)NCc2ccco2)cc1	102
c1ccc(N2CCN(c3cnc4ccccc4n3)CC2)cc1	115
COC(=O)COc1cc2oc(=O)cc(C)c2cc1Cl	101
N#CC1=C(N)C(C#N)(C#N)C(c2cccs2)C2CCCC=C12 (stereo unspecified)	101
COC(=O)C1=NNC(C(=O)c2ccco2)C1c1ccc(OC)cc1 (stereo unspecified)	100
Cc1ccc(OCc2cc(C(N)=O)oc2C)cc1	96
O=C(C1CCN(S(=O)(=O)c2cnc[nH]2)CC1)N1CCn2c1nc1ccccc12	96
Cc1onc(-c2c(Cl)cccc2Cl)c1N	105
CC(=O)Nc1ccc(S(=O)(=O)CCC(=O)O)cc1	90
CC(O)CN1CCCCC1c1cccnc1 (stereo unspecified)	100
C=CCc1cccc(C)c1OCCCN1CCC(C)CC1	112
N#Cc1ccc(C2N=C(c3ccccc3)NO2)cc1 (stereo unspecified)	99
C[n+]1cn(CC(=O)Nc2ccccc2)c2ccccc21	98
O=C(c1ccc(C(F)(F)F)cc1)N1CCCCC1	100
CC(=O)NCCSc1c(C)[nH]c2ccccc12	100
CCCCC/C=C\C/C=C\CCCCCCCC(=O)NCC(=O)O	100
CNS(=O)(=O)c1cc(OC)ccc1OC	102
CC(O)Cn1c(=N)n(C)c2ccccc21 (stereo unspecified)	110

Among those listed so far, these have a tert-butyl group.
SMILES	Vaccinia pol inh
CCOC(=O)c1cc(C(C)(C)C)[nH]c(=S)c1C#N	107
Cc1cc(C)c(OCC(O)CNC(C)(C)C)c(C)c1 (stereo unspecified)	100
COc1ccc(C(C)(C)C)cc1NC(=O)COC(=O)C1CCC1	89
CSc1nc2cc(C)nn2c(-c2ccc(C(C)(C)C)cc2)c1C#N	95

Reformatted with bars between the fields: four of the compounds above.
smiles | Vaccinia pol inh
CC(O)CN1CCCCC1c1cccnc1 (stereo unspecified) | 100
CC(O)Cn1c(=N)n(C)c2ccccc21 (stereo unspecified) | 110
C=CCc1cccc(C)c1OCCCN1CCC(C)CC1 | 112
O=C(C1CCN(S(=O)(=O)c2cnc[nH]2)CC1)N1CCn2c1nc1ccccc12 | 96

(continued)
SMILES	Vaccinia pol inh
O=c1c2c3c(sc2ncn1CCc1ccccc1)CCCC3	92
Cc1cc2c(o1)-c1c(oc3ccccc13)CCC2(C)c1ccccc1 (stereo unspecified)	98
O=C(COc1ccc(Cl)cc1)OCCOc1ccccc1F	105
CC1NC(=O)C(C#N)=C(SCc2ccccc2)S1 (stereo unspecified)	63*
O=C1NCCCN1Cc1ccc(F)cc1Cl	97
COc1cc(NC(=O)C(Sc2nc(C)cc(C)c2C#N)c2ccccc2)c(OC)cc1Cl (stereo unspecified)	91
O=c1[nH]c2ccc(S(=O)(=O)Nc3ccc(O)cc3)cc2[nH]1	99
O=C1CC(c2ccccc2)SC(N2CCc3ccccc32)=N1 (stereo unspecified)	116
CCSc1cc(C(F)(F)F)nc2cc(C(C)(C)C)nn12	106
Cc1ccc(-n2nnnc2-c2nc3ccccc3s2)cc1	111
Cc1c(C(=O)O)oc2ccc3c(c12)C(=O)CC1(CCCC1)O3	88
COc1cc(-c2cc(C#N)on2)cc(OC)c1OC	94
CO/C([O-])=N/c1c[n+](-c2ccc(Cl)cc2)no1	103
Cc1ccc2nc(NC(=O)c3ccco3)sc2c1	91
FC(F)(F)N(c1ccccc1)c1ccccc1	96
Cc1ccc(NC(=O)c2ccsc2)cc1NS(C)(=O)=O	100
CC(=O)Nc1ccc(S(=O)(=O)N2CCCCC2C)cc1 (stereo unspecified)	100
N#Cc1c(N)c(C(=O)c2ccccc2)n2c1CCC2	99
CCN(CC)C(=O)c1cccc(C)c1	96
CSc1nnc(COc2ccccc2)n1N	99
O=C(O)c1ccc(C2SCC(=O)N2NS(=O)(=O)c2ccc(F)cc2)cc1 (stereo unspecified)	100
NC(=O)c1cc(Cl)ccc1I	96
O=C(COc1ccc(F)cc1F)n1cnc2ccccc21	97
CN(CC(O)COCc1cccs1)C1CCCCC1 (stereo unspecified)	94
Clc1ccc(SCc2csc(-c3ccsc3)n2)cc1	97
O=C(NC(N1CCCC1=O)(C(F)(F)F)C(F)(F)F)c1cccnc1	83
Cc1cc(C)nc(SCC(=O)N2c3ccccc3C(C)CC2(C)C)n1 (stereo unspecified)	100
O=C(O)C1CCC(=O)N1Cc1cccs1 (stereo unspecified)	105
CC1CCCCN1CCCNC(=O)Nc1ccc(Cl)cc1 (stereo unspecified)	108
c1ccc(N2CCN(Cc3cn4ccccc4n3)CC2)nc1	103
CS(=O)(=O)N(Cc1ccccc1Cl)c1ccc(C(=O)Nc2ccc3c(c2)OCO3)cc1	100
C[C@H]1c2ccoc2CC2[C@H]1CCC1[C@@](C)(CC(=O)O)CCC[C@]21C (stereo partly specified)	97
Cc1ccccc1OCc1nnc(SCC(N)=O)n1C	99
CC12CCC(C(=O)N3NC(=O)[C@@H](c4ccccc4)[C@@H]3c3ccccc3)(OC1=O)C2(C)C (stereo partly specified)	85
CCC12CN3CC(CC)(CN(C1)C(=O)c1ccccc1C3=O)C2=O	100
O=C1Nc2ccc(S(=O)(=O)N3CCCC3C(=O)O)c3cccc1c23 (stereo unspecified)	104
Cc1ncc(CO)c2cc(C(=O)Nc3ccc(I)cc3)c(=O)oc12	101
CCN(CC)c1ccc(C(=O)OCC(=O)Nc2ccc(F)cc2F)cc1	104

Not all compounds are listed. The share of hits here may be higher or lower than overall.
